# Screens deposited in PubChem by National Center for Advancing Translational Sciences (NCATS).
# TRHR ag: qHTS for Small Molecule Agonists and Allosteric Enhancers of Human TRH Receptor: Primary Screen for Agonists. Thyrotropin-releasing hormone receptor (Homo sapiens), P34981. TRHR cells, calcium flux fluo-8, FDSS agonist mode. activation, % at 2 µM. hit rate 0.18% among 360,000. AID 493084, 2011; also: 0% is about no effect
#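 TRHR-expressing cells loaded with fluo-8 calcium dye; 23 nL library compound pin-transferred, kinetic FDSS fluorescence (Ex 480/Em 530) recorded about 180 s for agonist-induced calcium release, before a 10 nM TRH EC20 addition for potentiator mode.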
# D1 potentiator: Potentiators of Human D1 Dopamine Receptor: qHTS. HEK293 TREx D1 cells, calcium flux, dopamine EC20 potentiation. hit rate 0.036% among 360,000. potentiation, % at 10 µM; in the data active = potentiation above about 30%; also: 0% is about no effect
# Target sequence (P21728 whole entry, looked up): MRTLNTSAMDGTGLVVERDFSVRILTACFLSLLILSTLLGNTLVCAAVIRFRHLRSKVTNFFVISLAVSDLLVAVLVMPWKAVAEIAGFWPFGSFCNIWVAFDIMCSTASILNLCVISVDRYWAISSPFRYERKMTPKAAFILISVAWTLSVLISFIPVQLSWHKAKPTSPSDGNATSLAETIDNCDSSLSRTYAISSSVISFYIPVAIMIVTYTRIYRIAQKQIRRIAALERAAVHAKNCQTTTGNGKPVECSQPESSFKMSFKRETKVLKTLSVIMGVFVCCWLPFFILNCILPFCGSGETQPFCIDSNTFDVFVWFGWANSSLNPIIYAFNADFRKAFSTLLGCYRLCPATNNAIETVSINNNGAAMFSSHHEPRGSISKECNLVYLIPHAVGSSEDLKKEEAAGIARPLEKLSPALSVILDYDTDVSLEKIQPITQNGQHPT
# D2 PAM: HTS Assay for Positive Allosteric Modulators of the Human D2 Dopamine Receptor: Primary Screen for Potentiators; potentiation, % at 10 µM; D(2) dopamine receptor (Homo sapiens), P14416; hit rate 0.34% among 340,000; HEK293 T-REx D2, calcium flux, EC20 dopamine potentiation;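 active = potentiation over 3 SD above the plate norm, cut at about 30% in these data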; also: 0% is about no effect
#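 Tetracycline-induced HEK293 T-REx cells force-coupled to calcium signalling expressed D2; compounds were pin-added after a 10 s baseline, read kinetically 180 s, then an EC20 dopamine challenge followed with a further 180 s calcium read.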
# D1 ag: Allosteric Agonists of the Human D1 Dopamine Receptor: qHTS; D(1A) dopamine receptor (Homo sapiens), P21728; HEK293 T-REx D1 cells, calcium flux, agonist mode; activation, % at 2 µM; hit rate 1% among 360,000; AID 504660, 2011; also: 0% is about no effect
#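 Inducible HEK293 T-REx D1 cells, force-coupled to calcium signalling, were plated at 4000 cells/well with tetracycline and held overnight at 30 C. After no-wash calcium dye loading, compound-evoked calcium rise over 180 s flagged agonists.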
# D1 antagonist: Antagonist of Human D 1 Dopamine Receptor: qHTS. hit rate 3.2% among 360,000. D(1A) dopamine receptor (Homo sapiens), P21728. HEK293 TREx D1 cells, calcium flux, dopamine EC80; hits give low values. activity change, negative = inhibition, % at 10 µM; in the data active = activity change below about -30%; also: % is scaled to controls: 0 for no effect and ±100 for the full control effect
#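 Compound effects on dopamine-evoked calcium signalling were measured in tetracycline-induced HEK293 Trex D1 cells. Dopamine at EC80 followed a 180 s compound pre-read, and fluorescence was tracked kinetically for 180 s more.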
# Anesthetic bind: qHTS Assay for Identification of Novel General Anesthetics. Ferritin light chain (Equus caballus), P02791. apoferritin/1-aminoanthracene competitive binding, fluorescence. Potency, µM (doses to about 77.5 µM), for the others: at the highest dose activity change, negative = displacement, usual class: inhibitors. hit rate 0.074% among 350,000; active = well fitted inhibition curve with a large enough effect; inconclusive = small, poorly fitted or top-dose-only effect; inactive = no such curve, though single readings can be large or run the other way; also: potency is read from the fitted curve at half-maximal effect; % is scaled to controls: 0 for no effect and ±100 for the full control effect; nearly all actives have a fitted effect of over 20% in size
# Target sequence (P02791 2-175 limits assumed): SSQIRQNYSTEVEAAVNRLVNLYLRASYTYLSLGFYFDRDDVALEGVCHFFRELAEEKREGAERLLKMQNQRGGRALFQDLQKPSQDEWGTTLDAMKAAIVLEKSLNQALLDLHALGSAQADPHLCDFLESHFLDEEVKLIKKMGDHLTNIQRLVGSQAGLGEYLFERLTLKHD
#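 10 uM apoferritin + 50% sat. 1-AMA, PBS; cpd 10 min RT; Ex380/Em535 endpoint; normalized to free probe vs complex; 4-param Hill fit; propofol titration as pos. ctrl.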
# TRHR PAM: qHTS for Small Molecule Agonists and Allosteric Enhancers of Human TRH Receptor: Primary Screen for Enhancers; Thyrotropin-releasing hormone receptor (Homo sapiens), P34981; TRHR cells, fluo-8 calcium fluorescence, EC20 TRH enhancement; enhancement, % at 2 µM; hit rate 0.66% among 360,000; AID 493056, 2011; in the data active = enhancement above about 30%; also: 0% is about no effect
#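 Enhancer read-out: after compound pinning and an initial kinetic agonist-mode read, an EC20 of TRH (10 nM final) was injected and fluo-8 calcium signal (Ex 480/Em 530) followed at 1 s/cycle for 100 cycles in TRHR-expressing cells.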
# * = called active by the depositor; u = inconclusive; x = no result given; [ ] = dose if it differs, or a comment. Rule as the data show it, unless noted: active = activation above about 30%; inactive = the rest. A portion of the library (hit frequency here may not be typical).
# Each structure is followed by: TRHR ag | D1 potentiator | D2 PAM | D1 ag | D1 antagonist | Anesthetic bind | TRHR PAM
> COc1ccc(/C(O)=C2/C(=O)C(=O)N(c3ccccn3)C2c2ccc(F)cc2)cc1 (stereo unspecified)
 : 0.1 | -0.7 | -6.0 | 1.6 | -0.8 | 4.9% | -4.5
> C=CCn1c(CCNC(=O)c2ccccc2F)nnc1SCC(=O)Nc1nc2ccccc2s1
 : -0.2 | -6.8 | -14.9 | 0.5 | -16.4 | -12.2% | -1.7
> COc1ccc(CNC(=O)C2CCN(C(=O)c3ccc(-n4ccc5ccccc54)s3)CC2)cc1
 : 0.4 | -3.9 | 5.2 | 5.5 | -5.0 | 99.6%[activator] | 6.7
> COc1ccc(CNS(=O)(=O)c2cc(CN3C(=O)c4cccnc4C3=O)ccc2OC)cc1
 : -0.1 | -3.0 | x | 3.6 | -1.4 | -18.6% | 0.8
> CC(C)c1ccc(-c2c(C#N)c(N)nc(SCC(=O)N3CCCCCC3)c2C#N)cc1
 : -0.1 | -5.8 | -6.1 | 2.1 | 2.7 | -8.8% | 5.1
> COc1ccc(CCNC(=O)CSc2nc3ccccc3nc2Cc2ccc(Cl)cc2)cc1OC
 : 0.2 | -0.1 | x | 0.5 | -4.8 | -21.0% | -8.7
> O=C1Nc2cc(C(=O)N3CCN(c4ccccn4)CC3)ccc2S/C1=C\c1ccccc1
 : -0.8 | 5.2 | 4.3 | 0.5 | 10.4 | 13.2% | 8.6
> COc1ccc(NC(=O)CSc2nnc(-c3cccs3)n2N)c(OC)c1
 : -0.1 | -1.5 | 5.4 | 0.5 | -6.4 | x | 2.5
> COc1ccc(/C=C/C(=O)NC(=S)N2CCSCC2)cc1
 : -1.8 | -1.2 | -6.4 | -1.7 | -24.0 | -20.2% | -0.3
> COc1ccc(-c2nnc(SCC(=O)Nc3ccc(Cl)cc3)s2)cc1
 : -0.3 | 1.1 | -3.5 | 1.4 | -4.1 | -0.4% | -2.4

# Rewritten bar-delimited: part of the list above.
molecule | TRHR ag | D1 potentiator | D2 PAM | D1 ag | D1 antagonist | Anesthetic bind | TRHR PAM
COc1ccc(CCNC(=O)CSc2nc3ccccc3nc2Cc2ccc(Cl)cc2)cc1OC | 0.2 | -0.1 | x | 0.5 | -4.8 | -21.0% | -8.7
COc1ccc(/C=C/C(=O)NC(=S)N2CCSCC2)cc1 | -1.8 | -1.2 | -6.4 | -1.7 | -24.0 | -20.2% | -0.3
COc1ccc(CNS(=O)(=O)c2cc(CN3C(=O)c4cccnc4C3=O)ccc2OC)cc1 | -0.1 | -3.0 | x | 3.6 | -1.4 | -18.6% | 0.8
COc1ccc(NC(=O)CSc2nnc(-c3cccs3)n2N)c(OC)c1 | -0.1 | -1.5 | 5.4 | 0.5 | -6.4 | x | 2.5

# Continuation.
# Each structure is followed by: TRHR ag | D1 potentiator | D2 PAM | D1 ag | D1 antagonist | Anesthetic bind | TRHR PAM
> C=CCNC(=O)Nc1ccc2nc(C)sc2c1
 : -0.8 | 0.5 | -2.5 | -0.4 | -28.6 | -2.1% | -3.5
> Cc1csc2nc(COc3ccc(NC(=O)COc4ccc(F)cc4)cc3)cc(=O)n12
 : -0.4 | -4.8 | 2.6 | 8.3 | -16.9 | -1.2% | -5.6
> O=C1CC(c2ccccc2)Cc2[nH]c(=O)c(C(=O)Nc3cccc(F)c3)cc21 (stereo unspecified)
 : 1.3 | 0.1 | -2.5 | 6.1 | 0.8 | -3.5% | 4.8
> CCOC(=O)N1CCN(C(=O)c2ccc3c(c2)NC(=O)/C(=C\c2cccc(C)c2)S3)CC1
 : -0.1 | 1.6 | 2.2 | 3.8 | -6.0 | -7.5% | 6.1
> CC(C)(C)c1ccc(OCC(=O)NC2CCS(=O)(=O)C2)cc1 (stereo unspecified)
 : 0.8 | -7.3 | -6.2 | 4.0 | 10.6 | -11.3% | -2.7
> CC1(C)Cc2ccccc2-c2[nH]c(=S)[nH]c(=O)c21
 : -0.6 | -9.3 | 16.3 | -0.2 | 3.1 | -16.3% | -3.7
> O=C1CCC/C(=N/NC(=O)c2ccc(NS(=O)(=O)c3cccs3)cc2)C1
 : 0.1 | -14.5 | 4.1 | 0.3 | 9.8 | -3.7% | 1.9
> Cc1ccc2c(=O)c(C(=O)c3cccc(Cl)c3)cn(CC(=O)Nc3ccccc3C(F)(F)F)c2n1
 : 0.0 | -2.2 | 2.6 | 4.9 | -5.3 | -12.0% | -3.6
> Nc1c(C(=O)N2CCOCC2)sc2nc(N3CCOCC3)c3c(c12)CCCC3
 : 0.5 | 4.5 | -4.1 | -0.7 | 2.5 | -0.9% | -8.0
> C=CCn1c(=S)[nH]c2scc(-c3ccc(C)o3)c2c1=O
 : 0.6 | -1.3 | 11.2 | 1.5 | 4.1 | -16.5% | 8.8
> COCCn1c(=NC(=O)CSC(C)=O)sc2cc(F)ccc21
 : -0.7 | -1.9 | 11.9 | 0.7 | -4.4 | -11.1% | 3.9
> CCCn1c(=O)c(-c2nc3ccccc3[nH]2)c(O)c2ccccc21
 : -0.7 | -8.8 | -8.5 | 0.4 | -1.1 | -3.9% | -5.2
> O=C(C1CC(=O)N(c2ccc(Cl)cc2)C1)N1CCOCC1 (stereo unspecified)
 : 0.2 | -10.3 | x | 1.4 | 1.8 | 3.0% | -4.0
> COc1ccccc1C(=O)Nc1ccc(S(=O)(=O)Nc2onc(C)c2C)cc1
 : 0.4 | -2.8 | -6.9 | 1.4 | 10.6 | -5.6% | -8.2
> CCN(CC)S(=O)(=O)c1ccc(N2CCN(C)CC2)c(NC(=O)c2cc(=O)c3ccccc3o2)c1
 : -1.7 | x | 7.7 | 7.3 | 4.6 | -3.5% | 10.7
> Cn1c(=O)c2sccc2n2c(CCCC(=O)NCc3ccc(F)cc3)nnc12
 : 0.7 | -1.8 | 33.0* | -2.0 | -2.9 | -1.5% | -2.8
> Cc1c(N=C2NC(=O)C(CC(=O)Nc3ccc(Cl)cc3)S2)c(=O)n(-c2ccccc2)n1C (stereo unspecified)
 : 0.2 | -13.6 | 18.3 | 3.3 | 3.3 | -16.3% | 8.7
> Cn1c(N)c(C(=O)COC(=O)c2ccc(OC(F)F)cc2)c(=O)n(C)c1=O
 : 0.3 | -5.2 | 4.1 | 8.0 | -12.2 | x | -0.6
> Cc1ccc(C)c(OCC(=O)Nc2cccc(S(=O)(=O)NC3=NCCCCC3)c2)c1
 : -1.5 | -4.5 | 0.6 | 15.6 | -6.9 | -10.3% | -1.2
> CCCCCOc1ccc(C(C)(O)C(CN2CCOCC2)c2ccccc2)cc1 (stereo unspecified)
 : 0.3 | 6.5 | -4.9 | 8.9 | 12.4 | -0.1% | -4.2
> OC1CN=C2Sc3ccccc3N2C1 (stereo unspecified)
 : 1.4 | 0.2 | 0.2 | 2.2 | -4.1 | 5.6% | 4.5
> O=C(COc1ccc(Cl)cc1)Nc1ccc(O)c(-c2nc3ccccc3s2)c1
 : 0.4 | -3.5 | -7.1 | 0.5 | 10.6 | 127.1%[activator] | -11.0
> N#CC(c1cccc(C(F)(F)F)c1)(c1ncc(C(F)(F)F)cc1Cl)N1CCOCC1 (stereo unspecified)
 : -0.1 | 3.2 | 23.0 | 3.4 | 18.1 | u | 10.9
> Cc1nc2cc(F)ccc2n1C1CCN(C(=O)c2ccc(F)cc2F)CC1
 : -0.2 | -6.5 | x | 4.0 | -0.5 | -7.3% | -6.6
> CC(C)c1ccc(C(C(=O)NC2CCCCC2)N(C(=O)c2ccccn2)c2cccnc2)cc1 (stereo unspecified)
 : -1.3 | 1.6 | 6.3 | 3.2 | 11.4 | -3.9% | -2.4
> O=C(CSc1nc2ccccc2nc1SCC(=O)N1CCCCC1)N1CCCCC1
 : -0.2 | 2.6 | 7.5 | 0.2 | 3.3 | -11.9% | 5.4

# Some values from above:
# O=C(COc1ccc(Cl)cc1)Nc1ccc(O)c(-c2nc3ccccc3s2)c1 | TRHR ag = 0.4
# OC1CN=C2Sc3ccccc3N2C1 (stereo unspecified) | D1 ag = 2.2
# CC(C)c1ccc(C(C(=O)NC2CCCCC2)N(C(=O)c2ccccn2)c2cccnc2)cc1 (stereo unspecified) | Anesthetic bind = -3.9%
